High-throughput results: PubChem BioAssay, National Center for Advancing Translational Sciences (NCATS)
A647 autofl: A647 region autofluorescence; 59,000 tested, under 10 active; AID 592; max dye-equivalent concentration, M; Compound fluorescence, A647 channel (570/671 nm), Tris buffer; active means above 1 µM dye equivalent; inconclusive means 0.1 to 1 µM; inactive means 0.1 µM or less;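 note: values scaled relative to a standard on each plate; highest value over a series up to 38 µM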
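Each compound's intrinsic fluorescence at 570 nm excitation and 671 nm emission is measured across its concentration series in 100 mM Tris, pH 8.0, after 15 min at room temperature, and reported relative to an A647 curve.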
AID923: qHTS Assay for Allosteric/Competitive Inhibitors of Caspase-1: Spectroscopic Profiling in AFC Spectral Region. compound fluorescence, AFC spectral region (405/520 nm); almost no hit is shown here. Potency, µM (series often up to 57.5 µM), for inactives: top-dose fluorescence increase, most hits filed as activators. 75,000 tested, 1.1% active; active = well fitted activation curve with a large enough effect; inconclusive = small, poorly fitted or top-dose-only effect;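 note: potency is the fitted concentration of half-maximal effect; 0% is about no effect; scaled to a free AFC standard on each plate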
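Titrations up to 57 uM read every 20 sec for 3 min (405/520 nm) with 50 nM caspase 1 and 5 uM Ac-WEHD-AFC, pH 7.5 HEPES buffer. Fluorescence-vs-time intercept gave baseline, scaled against on-plate AFC standard.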
Resorufin autofl: compounds fluorescent in resorufin spectral region; Compound fluorescence, resorufin region 547/598 nm, buffer; hits give high values; 59,000 tested, 0.04% active; max dye-equivalent concentration, M; active = above 10 nM dye equivalent; inconclusive = 1 to 10 nM; inactive = 1 nM or less; a few of its hits are not listed in these tables; note: highest value over a series up to 38 µM
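Intrinsic fluorescence profiled in the resorufin window (ex 547 nm, em 598 nm) after 15 min at room temperature in pH 8.0 Tris buffer (100 mM); responses normalized against a six-point resorufin standard series as dye-equivalent concentration.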
TSHR ag: activates the human thyroid stimulating hormone receptor; P16473; AID 926; HEK293-CNG-TSHR cells (CNG channel as cAMP sensor), membrane potential dye, cAMP; Potency, µM (doses to about 57.1 µM), without a hit: top-dose activation, most hits filed as activators; 73,000 tested, 0.48% active; active = well fitted activation curve of enough size with the parental cells flat; inconclusive = any curve in the parental cells; inactive = parental cells flat and receptor cells flat or falling; note: potency is the fitted concentration of half-maximal effect; % of control where 0% means no effect; weak receptor curves with flat parental cells got no call and are not listed
Target sequence (P16473 whole entry, looked up): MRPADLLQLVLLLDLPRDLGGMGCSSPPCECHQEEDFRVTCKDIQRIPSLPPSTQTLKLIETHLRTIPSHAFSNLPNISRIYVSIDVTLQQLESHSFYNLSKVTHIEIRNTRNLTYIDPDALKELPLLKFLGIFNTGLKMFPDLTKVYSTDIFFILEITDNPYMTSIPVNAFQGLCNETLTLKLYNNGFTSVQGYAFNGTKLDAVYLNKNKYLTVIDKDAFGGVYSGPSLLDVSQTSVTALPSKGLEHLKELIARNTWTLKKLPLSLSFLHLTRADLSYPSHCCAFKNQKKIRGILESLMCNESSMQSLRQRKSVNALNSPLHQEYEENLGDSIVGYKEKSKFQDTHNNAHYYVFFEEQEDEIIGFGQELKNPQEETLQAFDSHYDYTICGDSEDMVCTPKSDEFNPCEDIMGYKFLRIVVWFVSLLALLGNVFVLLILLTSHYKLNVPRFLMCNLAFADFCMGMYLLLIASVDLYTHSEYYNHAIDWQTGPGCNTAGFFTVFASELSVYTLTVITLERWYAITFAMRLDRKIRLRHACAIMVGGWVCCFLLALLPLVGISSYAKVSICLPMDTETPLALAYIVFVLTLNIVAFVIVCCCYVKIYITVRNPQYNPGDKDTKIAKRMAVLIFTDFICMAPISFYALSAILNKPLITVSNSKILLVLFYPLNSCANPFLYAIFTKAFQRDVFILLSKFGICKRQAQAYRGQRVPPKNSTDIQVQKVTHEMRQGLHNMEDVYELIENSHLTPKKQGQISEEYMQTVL
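HEK 293 cells stably expressing TSHR and a modified CNG channel, with CNG-only parental cells as counterscreen, were preloaded 60 min at room temperature with membrane potential dye containing 100 uM RO 20-1724. Compound exposure was 30 min, and depolarization was read as fluorescence at 590 nm.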
A488 autofl: A488 region autofluorescence. compound autofluorescence, A488 spectral region, dye equivalency; hits give high values. max dye equivalency, M. 59,000 tested, 0.1% active. AID 591; active = above 10 nM dye equivalent; inconclusive = 1 to 10 nM; inactive = 1 nM or less; about half of its hits are not listed in these tables;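 note: highest value over a series up to 38 µM; compound alone in buffer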
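Compound autofluorescence was read in 100 mM Tris pH 8.0 after 15 min at room temperature, ex 480 nm/em 540 nm. Intensities were converted to A488 dye-equivalent concentration using an on-plate six-point A488 standard curve.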
Starred values were filed as active, the others as inactive; i = inactive; ? = inconclusive; / = not tested or not shown; & = joins results of further samples; [ ] = remark or other dose. These rows are one share of the data, so the mix of outcomes need not match the whole.

SMILES | A647 autofl | AID923 | Resorufin autofl | TSHR ag | A488 autofl
Nn1c(SCC(=O)N2CCCc3ccccc32)nnc1-c1ccc(Cl)cc1 | 2.01e-08 | -0.3% | i | 3.9% | i
COc1cc(=O)n(C)c2c(OC[C@@H](O)C(C)(C)O)cccc12 | 3.2e-09&4.3e-09&1e-09 | -0.4%[25.7 µM] | i | ? | i
COCc1cc(CN2CCCC2)c(O)c2ncccc12 | / | 2.6% | / | -2.5% | /
CCCCCNC(=O)c1ccc2c(=O)[nH]c3c(C(=O)NCC4CCCO4)sc(=S)n3c2c1 (centres undefined) | 1.97e-08 | 0.2% | i | -4.0% | i
Cc1cc(C)n(C(=O)c2cccc(S(=O)(=O)N3CCOCC3)c2)n1 | 3.68e-08 | -1.2% | i | 23.4% | i
CC(=O)OC[C@@H]1O[C@H](C/C=N\O[C@@H](C)c2cc(-c3c(C)cc(C)cc3C)no2)C=C[C@@H]1OC(C)=O | / | 1.5%[11.5 µM] | / | 1.8%[11.4 µM] | /
CC1CCN(CC(=O)NCc2ccccc2)CC1 | 5.1e-09 | -0.1% | i | 11.6% | i
O=C(C1CC1)N1CCC(c2nc(-c3ccc(S(=O)(=O)NCC4CCCO4)cc3)no2)CC1 (centres undefined) | 2.57e-08 | -0.4% | i | ? | i
COc1ccc(S(=O)(=O)N2CCC(N3CCCCC3)CC2)cc1 | 2.9e-09 | / | i | / | i
CSCCC(=O)Nc1ccc(C(C)=O)cc1 | / | 0.8% | / | -6.0% | /
Cc1cc(C)n2cc(CSc3nnc(N)s3)nc2n1 | 1.59e-08 | -0.2% | i | 12.8% | i
Cc1ccccc1NC(=O)C(C#N)Cc1cccnc1 (centres undefined) | 2.83e-08 | -1.4% | i | 2.0% | i
O=C(Nc1ccc(Cl)cc1C(=O)Nc1ccc(Br)cn1)c1ccco1 | 1e-09 | 1.0% | i | ? | i
COC(=O)Cn1c(C(=O)N2CCCC2)cc2c1C[C@H]1CN(C(=O)c3ccccc3)[C@@](Cc3ccc(F)cc3)(C(=O)OC)[C@@H]21 | / | -0.5% | / | ? | /
CCOc1ccc2nc(NC(=O)C(NS(=O)(=O)c3cccs3)C(C)C)sc2c1 (centres undefined) | 1e-09 | 1.0% | i | -3.6% | i
O=S(=O)(NCCOCCNS(=O)(=O)c1ccccc1)c1ccccc1 | / | -0.8% | / | 14.5% | /
C=C(C)c1cccc(C(C)(C)NC(=O)N2CCN(C)CC2)c1 | 1.5e-09 | 0.2% | i | / | i
Cc1cc(C)cc(NC(=O)CN(C)S(=O)(=O)c2cnc[nH]2)c1 | 2.73e-08 | -1.9% | i | -1.7% | i
Cn1c(=O)c2c(SCc3cccnc3)nc(CC(C)(C)C)nc2n(C)c1=O | / | -0.5% | / | ? | /
CC(=O)CCc1c(C)c2cccc(C)c2[nH]c1=O | / | 5.0% | / | ? | /
CC(=O)CSc1ncnc2c1oc1ccccc12 | 1e-09 | 0.7% | i | 1.2% | i
O=S(=O)(c1cccs1)N1CN(Cc2cccs2)c2nc3ccccc3nc21 | 1e-09 | 1.8% | i | ? | i
CCN(CC)c1nc2nonc2nc1N(CC)CC | 1.72e-08 | 0.9% | i | 9.1% | i
CCOC(=O)C1CCN(C(=O)C2CCN(S(=O)(=O)N3CCCC3)CC2)CC1 | 1e-09 | 0.7% | i | -2.0% | i
O=C(Nc1ccc(N2CCOCC2)cc1)C1CCCN(S(=O)(=O)c2ccccc2)C1 (centres undefined) | 2.04e-08 | 0.3% | i | -5.6% | i

Laid out differently: results already given.
> CSCCC(=O)Nc1ccc(C(C)=O)cc1
- A647 autofl: /
- AID923: 0.8%
- Resorufin autofl: /
- TSHR ag: -6.0%
- A488 autofl: /

> Cc1cc(C)n2cc(CSc3nnc(N)s3)nc2n1
- A647 autofl: 1.59e-08
- AID923: -0.2%
- Resorufin autofl: i
- TSHR ag: 12.8%
- A488 autofl: i

> Cc1ccccc1NC(=O)C(C#N)Cc1cccnc1 (centres undefined)
- A647 autofl: 2.83e-08
- AID923: -1.4%
- Resorufin autofl: i
- TSHR ag: 2.0%
- A488 autofl: i

Following part:
SMILES | A647 autofl | AID923 | Resorufin autofl | TSHR ag | A488 autofl
CN(C)CCSS(=O)(=O)O | 3.48e-08 | -1.1%[11.5 µM] | i | 1.5%[11.4 µM] | i
CC(OC(=O)c1ccco1)C(=O)NC1CCCCC1 (centres undefined) | 4.3e-09 | -0.7% | i | -1.9% | i
CC(=O)N(C)c1ccc(NC(=O)c2cnn(C)c2)cc1 | 8.2e-09 | 3.2% | i | -3.0% | i
CSCCC(NC(=O)c1cc(C(C)(C)C)oc1C)C(=O)O (centres undefined) | 6e-09 | 0.7% | i | / | i
COc1ccc(OC)c(NC(=O)c2cc3n(n2)C(C(F)(F)F)CC(c2ccc4c(c2)OCO4)N3)c1 (centres undefined) | 1.96e-08 | 1.5% | i | -2.6% | i
CN(Cc1ccccc1)Cc1nc2c(c(=O)n(C)c(=O)n2C)n1Cc1ccc(Cl)cc1 | 2.14e-08 | 0.4% | i | -5.2% | i
CC1(C)CCCC2=C1CC1C(=O)N(Cc3cccnc3)C(=O)C1C2 (centres undefined) | / | 1.9% | / | -4.2%[11.4 µM] | /
COc1ccc2c(=O)cc(-c3ccncc3)oc2c1OC | 1e-09 | -1.0%[11.5 µM] | i | 1.0%[11.4 µM] | i
O=C(Cn1cccc1)NC1CCCCCC1 | 1.85e-08 | -0.6% | i | 12.9%[11.4 µM] | i
CC1(C)CCC(C)(C)c2cc(C(=O)Nc3ccc(C(=O)O)cc3)ccc21 | / | -5.3% | / | ? | /
Cc1cccc(C(=O)N(C)c2nnc(-c3ccncc3)s2)c1 | 3.7e-08 | 1.7% | i | 12.1% | i
CC1=C(C(=O)OC(C)C)C(c2cccc(F)c2)n2ncnc2N1 (centres undefined) | / | 0.8% | / | -11.4% | /
c1cc(N2CCCC2)ccc1C(c1nnnn1C1CCCCC1)N1CCOCC1 (centres undefined) | 1e-09 | 16.2% | i | 10.3% | i
O=C(CCS(=O)(=O)c1cccs1)Nc1ccc(C(=O)NCc2cccs2)cc1 | 7.7e-09 | 0.5% | i | -2.6% | i
Cc1nn(-c2ccccc2)c(C)c1C(=O)Nc1nnc(-c2ccco2)o1 | 1.85e-08 | -0.2% | i | 9.4%[11.4 µM] | i
CCC(C)NC(=O)C1CCCN(C(=O)Nc2ccc(F)cc2)C1 (centres undefined) | 4.7e-09 | -0.6% | i | 1.2% | i
C(=N\n1cnnc1)/c1cccc2ccccc12 | 1e-09 | -0.7% | i | / | i
CCc1nc(C)cn1S(=O)(=O)c1cc(C)c(OC)cc1C | / | 3.0% | / | ? | /
c1ccc2sc(NC3=NCN(Cc4ccc5c(c4)OCO5)CN3)nc2c1 | 1.89e-08 | -0.1% | i | ? | i
O=C1CCc2cc(S(=O)(=O)N3CCCC3C(=O)N3CCN(c4ccccc4F)CC3)ccc2N1 (centres undefined) | / | -1.7% | / | ? | /
c1ccc(CNc2nc3ccccc3n3cnnc23)nc1 | / | -0.9% | / | -6.0% | /
OCc1cn(-c2ccccc2)nc1-c1ccc2c(c1)OCCO2 | 1.51e-08 | -3.3% | i | -4.9% | i
CSc1nnc2c(n1)OC(c1cccn1C)N(C(C)=O)c1ccccc1-2 (centres undefined) | 2.33e-08 | 0.2% | i | ? | i
Cc1csc2nc(CNC(=O)C3CCCCC3)cn12 | / | 0.4% | / | 4.7% | /
CC(C(=O)N1CCCCC1)n1ncn2cccc2c1=O (centres undefined) | / | 1.2% | / | -1.5% | /
The list continues.
SMILES | A647 autofl | AID923 | Resorufin autofl | TSHR ag | A488 autofl
COc1ccc(-c2nc(CS(=O)CC(=O)NCCC3=CCCCC3)c(C)o2)cc1 (centres undefined) | / | -2.5% | / | 11.9% | /
CCOc1cccc(=O)c2c(C)n(CC3CCCO3)c(C)c12 (centres undefined) | / | 11.1% | / | -2.8% | /
Cc1ccc(C)n1-c1ccc(N2CCOCC2)cc1 | / | 4.1% | / | -11.1% | /
CCCCOc1ccc(S(=O)(=O)Nc2cccnc2)cc1 | 3.34e-08 | -0.9% | i | / | i
Cc1ccc(OCc2nnc(SCC(=O)C(C)(C)C)n2Cc2ccco2)cc1 | 1e-09 | -2.3% | i | ? | i
CSc1nc2sc3c(c2c2nncn12)CCC3 | 3e-09 | / | i | / | i
N#Cc1ccccc1NC(=O)CSc1nnc(-c2ccccc2O)n1-c1ccccc1 | 1.24e-08 | 1.2% | i | 51.8% | i
O=C(Cn1c(=O)sc2ccccc21)Nc1ccc2c(c1)OCCO2 | 1.76e-08 | 2.0% | i | -0.9% | i
O=C(c1csc2ccccc12)n1cccn1 | 2.4e-09 | 0.4% | i | 1.7% | i
N#Cc1c(N)nc2c(c1-c1ccc3c(c1)OCO3)CCCCCC2 | 1.66e-08 | 1.7% | i | ? | i
Cn1nc(-c2ccc(Cl)cc2)c2cc(C(=O)NCc3ccco3)sc21 | / | 1.1% | / | ? | /
Cc1cc(F)c(F)c(C(=O)NC2CC2)c1Cl | 2.96e-08 | -1.4% | i | 4.2% | i
C/C(Cl)=C\Cn1c(Nc2ccc(C)cc2)nc2c1c(=O)n(C)c(=O)n2C | 1.31e-08 | -1.1% | i | -34.8%[inhibitor] | i
COC(=O)CSc1nnc(CNC(=O)c2ccc(S(=O)(=O)N3CCCCC3)cc2)n1C | 1e-09 | 1.1% | i | ? | i
CC(C)Cc1nnc(NS(=O)(=O)c2ccc(Cl)cc2)s1 | / | -6.9% | / | 5.4% | /
COc1cccc2c1NC(C(=O)O)C1CC=CC21 (centres undefined) | 9.8e-09 | 3.1% | i | -4.2% | i
Cc1ccc(-n2ncc3c(=O)n(CC(=O)NC4CCCCC4)cnc32)cc1C | 1e-09 | -0.7% | i | 10.9% | i
COc1ccc2c(c1OC)C(=O)N1c3ccccc3COC21 (centres undefined) | 1e-09 | 0.6% | i | 13.4% | i
COc1ccc(CNc2nc3nc(C)c(Cl)c(=O)n3[nH]2)cc1OC | 1.1e-09 | 2.9% | i | -3.9% | i
CC(C)Cc1nccs1 | / | 0.5% | / | 2.2% | /
Cc1noc(NS(=O)(=O)c2ccc(NC(=O)C34CCC(CC3)C4)cc2)c1C | 1e-09 | -0.2% | i | ? | i
Cc1c(C(=O)NCCC2=CCCCC2)oc2ccc(S(=O)(=O)N3CCOCC3)cc12 | 2.68e-08 | 2.0% | i | ? | i
Oc1cc(CN2COc3ccccc32)c(O)cc1CNC1CCCCC1 | 1.8e-09 | 1.5%[11.5 µM] | i | -3.7%[11.4 µM] | i
COCCCN1C(=O)C(=O)/C(=C(/O)c2ccccc2)C1c1ccc2c(c1)OCO2 (centres undefined) | 2.2e-08 | -0.1% | i | -1.1% | i
CCOc1cccc(/C(O)=C2/C(=O)C(=O)N(CCOC)C2c2ccc(C)o2)c1 (centres undefined) | 1e-09 | 0.7% | i | 1.7% | i
More entries:
SMILES | A647 autofl | AID923 | Resorufin autofl | TSHR ag | A488 autofl
Cc1nnc(SCC(=O)N2CCCCC2)s1 | 1e-09 | 0.0% | i | -11.3% | i
CCCCOc1ccc(-c2nnc(N)s2)cc1 | 2.69e-08 | / | i | / | i
c1ccc(-c2csc3ncn4nnnc4c23)cc1 | 3.26e-08 | -1.0% | i | / | i
Cc1ccc(N(C(=O)Cn2nnc3ccccc32)C(C(=O)NCc2ccco2)c2ccc(C)o2)cc1 (centres undefined) | 3.2e-08 | 0.7% | i | ? | i
CCCc1nnc(SCC(=O)Nc2ccc(OC)cc2)n1N | 1e-09 | -2.2% | i | 2.9% | i
CC1CCc2nn(CC(=O)NCCN3CCCCC3C)cc2C1 (centres undefined) | / | -0.3% | / | 8.4% | /
Cc1ccc(S(=O)(=O)NC(CC(N)=O)C(=O)O)cc1 (centres undefined) | 2.22e-08 | 0.4% | i | 0.7% | i
COCCCN=CC1=C(O)CC(C)(C)CC1=O | 1e-09 | -0.8% | i | -1.4% | i
CCOC(=O)c1c(CC(C)C)csc1NC(C)=O | 1e-09 | -1.0% | i | 19.4% | i
